rRNA inh HTS – selective bacterial rRNA inhibition in E. coli; E. coli WT GFP vs humanized-ribosome RFP mutants, fluorescence, 24 h; active compounds read low; DMSO median 0, no signal -100; GFP signal change (wild-type ribosome), % (test concentration not listed); actives 1.6% (n = 350,000); AID 720706;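 active means significant combined selectivity score with lowered wild-type GFP, culture density cut under 30%, mutant RFP and density less affected; inactive means any of these conditions unmet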; further: one replicate is shown; some compounds called inactive have numbers as strong as hits
Calb FLC – affects C. albicans growth with fluconazole | C. albicans CaCi-2 (fluconazole-resistant clinical isolate) + fluconazole, Alamar Blue growth, 48 h | growth inhibition, % (concentration not given with the values) | actives 0.57% (n = 300,000) | AID 1979;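 active means most replicates above 75%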;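 further: all wells also contain fluconazole at 8 µg/ml as a sub-toxic cotreatment; 0% = median of DMSO wells and 100% = median of geldanamycin control wells; wells of about 8 µL received 7.5 nL stock; the first replicate is given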
ALR H2O2 inh – inhibitors of human sulfhydryl oxidase ALR | inhibition, % (test concentration not listed) | actives 3.8% (n = 290,000) | purified ALR, DTT oxidation, H2O2 HRP-luminol luminescence | AID 485317;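 active means mean and each replicate at 75% or more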;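 further: stock transfer was 7.5 nL into about 7.5 µL; 0% = neutral wells and 100% = wells with inactivated enzyme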
Target sequence (P55789 whole entry, looked up): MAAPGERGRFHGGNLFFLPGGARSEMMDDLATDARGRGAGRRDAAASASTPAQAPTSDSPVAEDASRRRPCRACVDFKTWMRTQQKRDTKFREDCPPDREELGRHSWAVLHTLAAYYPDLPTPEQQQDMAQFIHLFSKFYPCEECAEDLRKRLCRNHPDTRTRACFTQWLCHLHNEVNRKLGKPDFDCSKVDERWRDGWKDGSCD
T cruzi repl – T. cruzi replication inhibition; inhibition, % (no concentration beside the values); actives 1.4% (n = 300,000); AID 1885; T. cruzi beta-gal in NIH3T3, luminescence, 90 h;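 active means mean inhibition across valid replicates above about 55%, limit read from the data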;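 further: signal also drops with host cell toxicity which is not excluded here; 0% = plate median of DMSO wells and 100% = zero luminescence signal; higher percent means less beta-gal luminescence so fewer parasites; stock transfer was 50 nL into about 50 µL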
LANA-H2B inh – blocks KSHV LANA binding to histone H2A/H2B. Q9QR71. cell-free LANA-H2A/H2B peptide, fluorescence polarization. inhibition, % (test concentration not listed). actives 0.6% (n = 320,000). AID 2629; in the data active means inhibition mostly above about 10%, no sharp cut-off; inactive means mostly below about 6.7%;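 further: stock transfer was 7.5 nL into about 10 µL; 0% = median of vehicle wells and 100% = median of positive control wells; one replicate is shown; the record names a cut of 25% in any replicate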
A1 inh – inhibitors of the anti-apoptotic protein A1, read as caspase activation; MEF A1-2A-BIM cells, Caspase-Glo 3/7 luminescence, 3 h; percent of clofoctol response, vehicle zero; caspase activation, % (test concentration not listed); actives 0.066% (n = 330,000);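 active means over half of replicate activation scores above 10%, or exactly half above 10 with the replicate mean above 10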;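 further: wells of about 30 µL received 50 nL stock; many hits fall short of the cut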
Beta apoptosis – blocks beta cell apoptosis; INS-1E cytokine-induced death, ATP luminescence, 48 h; percent of positive-control rescue, neutral wells zero; protection from apoptosis, % (no concentration beside the values); actives 0.8% (n = 300,000); AID 435005;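 active means all replicates at 75% or more, or half of them and the mean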;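 further: 0% = cytokine-treated negative control wells and 100% = positive control rescue; higher means more ATP so stronger rescue from cytokine killing; wells of about 40 µL received 100 nL stock; the first replicate is given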
B2AR ag – agonists of human beta-2 adrenergic receptor inducing internalization. P07550. Am2.2-beta2AR cells, FAP receptor internalization, flow cytometry; reference of the scale not given here. response, % (test concentration not listed). actives 0.43% (n = 340,000). AID 504454;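 active means response above a set limit, near 3 SD of response in nonfluorescent compounds, cut at about 42% in these data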;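 further: stock transfer was 100 nL into about 11 µL; a reference agonist was the positive control; negative values mostly stem from fluorescent compounds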
Target sequence (P07550 whole entry, looked up): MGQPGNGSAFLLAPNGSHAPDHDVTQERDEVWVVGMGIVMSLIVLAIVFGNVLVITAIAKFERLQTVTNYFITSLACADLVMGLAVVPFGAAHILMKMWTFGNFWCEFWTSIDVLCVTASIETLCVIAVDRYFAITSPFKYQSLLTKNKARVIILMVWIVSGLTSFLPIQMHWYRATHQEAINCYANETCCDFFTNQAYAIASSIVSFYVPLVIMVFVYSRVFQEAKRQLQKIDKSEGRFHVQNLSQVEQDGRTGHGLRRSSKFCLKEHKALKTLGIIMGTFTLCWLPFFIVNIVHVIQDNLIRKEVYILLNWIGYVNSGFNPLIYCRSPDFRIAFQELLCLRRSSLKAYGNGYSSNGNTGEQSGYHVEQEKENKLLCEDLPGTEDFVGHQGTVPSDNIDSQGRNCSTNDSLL
rRNA inh HTS OD600 – also measured in rRNA inh HTS; calls as there; OD600 change, %; measured here: OD600 growth;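 optical density of the mix in the first replicate; 0 = DMSO median and -100 = no signal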
rRNA inh HTS RFP – second read-out of rRNA inh HTS, no call of its own (marks repeat the call); RFP signal change, %; measured here: RFP humanized mutant strains;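 first replicate; 0 = DMSO median and -100 = no signal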
Numbers without * were called inactive; . = not tested or not shown.

(1) C/C(=N/NC(=O)CSc1nc2ccccc2n1C)c1ccc(O)cc1
(2) Cc1ccc(CN2C(=O)CCC2C(=O)NC(C)C)cc1 (stereo not drawn)
(3) CCOC(=O)CSc1nc2cc(C(=O)N3CCCC3)ccc2c(=O)n1Cc1ccccc1
(4) O=C(C1CCCN(CCCc2ccccc2)C1)N1CCCCC1 (stereo not drawn)
(5) CCOCCCN1CC(C(=O)NCCc2ccc(C)cc2)CC1=O (stereo not drawn)
(6) CC(=O)Nc1ccc(/C=N/OCC(=O)Nc2ccc(C)cc2)cc1
(7) Cc1ccccc1C(=O)Oc1ccc(Sc2ccc(O)cc2)cc1
(8) Cc1cc(O)c(C2(O)C(=O)Nc3cc(Br)ccc32)cc1C (stereo not drawn)
compound no.	1	2	3	4	5	6	7	8
rRNA inh HTS	-13	.	.	.	.	.	.	5
rRNA inh HTS OD600	-16	.	.	.	.	.	.	-16
rRNA inh HTS RFP	2.9	.	.	.	.	.	.	2.2
Calb FLC	-8	4	2	-4	-11	-13	1	-12
ALR H2O2 inh	99*	.	.	-6	0	-3	.	24
T cruzi repl	-6	-13	31	26	-5	-3	3	-5
LANA-H2B inh	2.5	0.4	3.6	-0.5	-7.6	2.5	-20	-2.2
A1 inh	1.5	1.5	-0.2	-1.1	1.4	0.7	-0.5	1.1
Beta apoptosis	-3	-14	0	4	-3	-1	7	-6
B2AR ag	-11	7	-5	-1	-2	4	.	15

(9) Cc1ccc(-c2cc(C(=O)N(C)Cc3cnn(C)c3C)c3cc(Br)ccc3n2)cc1
(10) COc1ccc(CN(C(=O)c2ccco2)c2ccc(Br)cc2)cc1OC
(11) CCn1cc(C(=O)Nc2ccccc2C(=O)OC)cn1
(12) O=C(COC(=O)C1CCC(=O)N1)Nc1ccc(Cl)cc1Cl (stereo not drawn)
(13) C=CCNC(=S)Nc1ccc2nc(C)oc2c1
(14) Cc1ccc(NC(=O)c2ccccn2)c(Br)c1
(15) CCOc1ccccc1C1CC(c2ccc(Br)cc2)Nc2nc(N)nn21 (stereo not drawn)
(16) CCn1c(Cc2cccs2)nnc1SCC(=O)NC1CC1
compound no.	9	10	11	12	13	14	15	16
rRNA inh HTS	-33	.	2	.	17	2	-12	-3
rRNA inh HTS OD600	-65	.	-6	.	10	0	-27	1
rRNA inh HTS RFP	1.0	.	-0.4	.	3.3	-1.9	-5.0	-2.6
Calb FLC	10	1	-1	7	-7	21	59	4
ALR H2O2 inh	0	24	-17	-1	43	6	10	-3
T cruzi repl	6	-2	-7	-6	-16	-8	12	-6
LANA-H2B inh	-6.5	5.4	3.3	0.0	-3.2	0.2	-2.4	4.8
A1 inh	0.1	0.2	0.6	0.6	0.0	-7.9	0.0	0.3
Beta apoptosis	15	2	.	3	-2	.	0	3
B2AR ag	19	-1	0	-3	2	26	-11	-3

(17) Cc1ccc(OC(=O)N2CCOCC2)cc1
(18) COc1ccc(NC(=O)C2CCCN2S(=O)(=O)c2cccc3cccnc23)cc1OC (stereo not drawn)
(19) CCOC(=O)N1CCC(n2c(SCC(=O)Nc3nccs3)nc3ccsc3c2=O)CC1
(20) O=C(NCc1ccc(F)cc1)C1CCN(S(=O)(=O)N2CCCCC2)CC1
(21) CCC1CCCCN1Cc1nc(Cc2ccccc2Cl)no1 (stereo not drawn)
(22) CN(C)CCN1C(=O)NC(C)(c2ccc([N+](=O)[O-])cc2)C1=O (stereo not drawn)
(23) Cn1c(N)c(C(=O)COC(=O)c2ccc(Cl)nc2)c(=O)n(C)c1=O
(24) CC(C)(C)C(=O)/C=c1\[nH]c(=O)/c(=C\c2ccc(F)cc2)s1
compound no.	17	18	19	20	21	22	23	24
rRNA inh HTS	.	10	.	5	-1	26	9	.
rRNA inh HTS OD600	.	12	.	1	-5	19	3	.
rRNA inh HTS RFP	.	0.0	.	-8.7	-1.3	4.2	-2.6	.
Calb FLC	-6	10	-6	4	-6	-9	-5	-3
ALR H2O2 inh	7	-14	-4	-5	4	-19	-4	40
T cruzi repl	2	-9	0	6	14	-13	-4	-3
LANA-H2B inh	0.1	-10	0.3	6.3	2.2	-11	-2.6	1.8
A1 inh	0.8	-0.8	1.1	0.0	0.6	1.0	-0.1	0.2
Beta apoptosis	1	-5	-1	-7	2	.	-5	12
B2AR ag	-1	6	-2	-1	-4	9	-17	3

14 entries from above, with bars between the fields:
item | SMILES | rRNA inh HTS | rRNA inh HTS OD600 | rRNA inh HTS RFP | Calb FLC | ALR H2O2 inh | T cruzi repl | LANA-H2B inh | A1 inh | Beta apoptosis | B2AR ag
1 | C/C(=N/NC(=O)CSc1nc2ccccc2n1C)c1ccc(O)cc1 | -13 | -16 | 2.9 | -8 | 99* | -6 | 2.5 | 1.5 | -3 | -11
2 | Cc1ccc(CN2C(=O)CCC2C(=O)NC(C)C)cc1 (stereo not drawn) | . | . | . | 4 | . | -13 | 0.4 | 1.5 | -14 | 7
3 | CCOC(=O)CSc1nc2cc(C(=O)N3CCCC3)ccc2c(=O)n1Cc1ccccc1 | . | . | . | 2 | . | 31 | 3.6 | -0.2 | 0 | -5
4 | O=C(C1CCCN(CCCc2ccccc2)C1)N1CCCCC1 (stereo not drawn) | . | . | . | -4 | -6 | 26 | -0.5 | -1.1 | 4 | -1
5 | CCOCCCN1CC(C(=O)NCCc2ccc(C)cc2)CC1=O (stereo not drawn) | . | . | . | -11 | 0 | -5 | -7.6 | 1.4 | -3 | -2
6 | CC(=O)Nc1ccc(/C=N/OCC(=O)Nc2ccc(C)cc2)cc1 | . | . | . | -13 | -3 | -3 | 2.5 | 0.7 | -1 | 4
7 | Cc1ccccc1C(=O)Oc1ccc(Sc2ccc(O)cc2)cc1 | . | . | . | 1 | . | 3 | -20 | -0.5 | 7 | .
8 | Cc1cc(O)c(C2(O)C(=O)Nc3cc(Br)ccc32)cc1C (stereo not drawn) | 5 | -16 | 2.2 | -12 | 24 | -5 | -2.2 | 1.1 | -6 | 15
9 | Cc1ccc(-c2cc(C(=O)N(C)Cc3cnn(C)c3C)c3cc(Br)ccc3n2)cc1 | -33 | -65 | 1.0 | 10 | 0 | 6 | -6.5 | 0.1 | 15 | 19
10 | COc1ccc(CN(C(=O)c2ccco2)c2ccc(Br)cc2)cc1OC | . | . | . | 1 | 24 | -2 | 5.4 | 0.2 | 2 | -1
11 | CCn1cc(C(=O)Nc2ccccc2C(=O)OC)cn1 | 2 | -6 | -0.4 | -1 | -17 | -7 | 3.3 | 0.6 | . | 0
12 | O=C(COC(=O)C1CCC(=O)N1)Nc1ccc(Cl)cc1Cl (stereo not drawn) | . | . | . | 7 | -1 | -6 | 0.0 | 0.6 | 3 | -3
13 | C=CCNC(=S)Nc1ccc2nc(C)oc2c1 | 17 | 10 | 3.3 | -7 | 43 | -16 | -3.2 | 0.0 | -2 | 2
14 | Cc1ccc(NC(=O)c2ccccn2)c(Br)c1 | 2 | 0 | -1.9 | 21 | 6 | -8 | 0.2 | -7.9 | . | 26

Other entries:
(25) O=C(Nc1ccc2c(c1)CCC2)c1ccccc1Br
(26) Cc1cccc(C(=O)Nc2cccc(OCC(=O)O)c2)c1
(27) O=C(O)CCCNS(=O)(=O)c1ccc2c(c1)OCCCO2
(28) COc1ccccc1/C=C/C(=O)NCCC1=CCCCC1
(29) COc1cc2[nH]c(=O)n(CCC(=O)N3CCN(Cc4ccccc4)CC3)c(=O)c2cc1OC
(30) CCCc1ccc(C(=O)NNc2ccccc2F)cc1
(31) CCC(C(=O)NCCCN1CC(C)CC(C)C1)n1ncn2c(cc3occc32)c1=O (stereo not drawn)
(32) Cc1ccc2c(c1)sc1nc(=O)n(-c3ccc(Cl)cc3)c(=O)n12
compound no.	25	26	27	28	29	30	31	32
rRNA inh HTS	-36	19	.	-7	3	-9	11	.
rRNA inh HTS OD600	-49	12	.	-2	-3	-3	14	.
rRNA inh HTS RFP	-4.3	0.1	.	0.5	-0.2	-2.3	0.3	.
Calb FLC	9	1	-3	29	-4	-24	-27	10
ALR H2O2 inh	2	-2	-5	1	-8	1	-1	-15
T cruzi repl	-1	-12	-6	16	13	7	12	8
LANA-H2B inh	-5.6	-2.2	1.6	2.2	-0.9	2.6	1.6	-4.3
A1 inh	-6.1	-9.6	0.5	-0.4	0.0	-1.0	1.0	0.1
Beta apoptosis	7	0	-1	4	-2	-4	-5	10
B2AR ag	-15	-5	7	-10	-1	-3	-20	2

(33) COc1ccc(OC)c(C2=NOC(C(=O)NCc3cccnc3)C2)c1 (stereo not drawn)
(34) O=C(CCn1cnc2ccccc2c1=O)Nc1cccc(Cl)c1
(35) C=CCOc1ccc(/C=C/C(=O)OCC(=O)N2CCC(c3ccccc3)=N2)cc1
(36) CCOC(=O)c1c(NC(=O)CSc2nnc(-c3c[nH]c4ccccc34)n2CCOC)sc2c1CCCCC2
(37) O=C(Cc1ccccc1F)Nc1ccc(SC(F)F)cc1
(38) COc1cccc(N2C(=O)CC(Nc3ccc(N4CCOCC4)cc3)C2=O)c1 (stereo not drawn)
(39) Cc1cc(Nc2ccc(Cl)cc2)nc(N)n1
(40) COc1ccc(C(C)=O)cc1CSc1nc2ccccc2c(=O)n1-c1ccccc1C
compound no.	33	34	35	36	37	38	39	40
rRNA inh HTS	0	.	12	6	-4	.	.	3
rRNA inh HTS OD600	2	.	7	4	-9	.	.	-1
rRNA inh HTS RFP	-12	.	1.5	4.1	-5.4	.	.	-5.3
Calb FLC	1	2	.	-1	-15	3	-10	9
ALR H2O2 inh	-9	-7	.	-29	23	99*	-20	-1
T cruzi repl	-8	4	.	51	-7	-6	20	-3
LANA-H2B inh	2.4	-3.7	2.0	0.8	1.5	-1.0	1.3	7.5
A1 inh	0.8	0.2	-0.5	-0.3	-1.9	1.4	-3.0	-0.6
Beta apoptosis	2	2	-7	32	3	4	11	16
B2AR ag	-8	-2	1	17	-7	8	-8	6

(41) CCOC(=O)c1cnc(-n2nc(C)cc2C)nc1Oc1ccc(C#N)cc1
(42) CCCn1c(SCC(=O)NCc2ccccc2)nnc1-c1ccncc1
(43) NC(N)=NCCC[C@H](NC(=O)OCc1ccccc1)C(=O)O
(44) CC(C)CC(C(=O)O)C(C)CC(=O)Nc1ccn(-c2ccccc2)n1 (stereo not drawn)
(45) c1n[nH]c(SCCCCSc2ncn[nH]2)n1
(46) O=c1cc(-c2ccc3c(c2)OCCO3)oc2ccc(Cl)cc12
(47) CCOC(=O)C1CCN(C(=O)COC(=O)C2CCN(S(=O)(=O)c3ccc(C)c(C)c3)CC2)CC1
(48) CCN1CCN(c2nnc(-c3ccc(F)cc3)c3ccccc23)CC1
compound no.	41	42	43	44	45	46	47	48
rRNA inh HTS	-10	.	13	.	.	.	1	2
rRNA inh HTS OD600	17	.	4	.	.	.	0	11
rRNA inh HTS RFP	0.3	.	-0.4	.	.	.	-2.4	-0.1
Calb FLC	25	-4	-2	-5	1	1	-1	-25
ALR H2O2 inh	-7	-4	.	2	.	2	-12	-1
T cruzi repl	6	-1	-4	6	-8	2	-7	1
LANA-H2B inh	-6.1	0.2	-5.1	0.9	-1.4	0.6	1.1	-2.6
A1 inh	0.1	-0.1	0.8	-0.3	-0.2	-6.7	1.3	0.6
Beta apoptosis	-6	2	-3	-6	-7	1	.	-8
B2AR ag	-12	4	-8	5	-2	2	5	2

Screening data (PubChem)

Not all compounds are listed. The share of hits here may be higher or lower than overall.
